# Mtb betalactam = beta-lactam sensitization of Mtb H37Rv | AID 434955 | inhibition, % at 25 µM | 330,000 compounds, 0.27% hits | M. tuberculosis H37Rv growth with meropenem, percent inhibition; hits of this screen are not shown here;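 active means about 74% or more and at least 40 points above the plate without the antibiotic, then above 30% in a dose series; inconclusive means first-round hits that could not be retested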;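 further: growth measured after seven days incubation then overnight dye step; 0% = bacteria only wells and 100% = bacteria with antibiotic; twin plates without the antibiotic show which effects depend on it; some results filed as inactive read as strong as hits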
# RecA splice inh = inhibitors of M. tuberculosis RecA intein splicing | P9WHJ3 | cell-free RecA intein splicing, fluorescence | inhibition, %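 (about 9 µM by stock and volumes)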 | 290,000 compounds, 0.75% hits | AID 2221; in the data active means inhibition above about 30%; inconclusive means no clear call, values can overlap the other calls;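 further: 0% = vehicle wells and 100% = reference inhibitor control wells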
# Target sequence (P9WHJ3 whole entry, looked up, canonical isoform): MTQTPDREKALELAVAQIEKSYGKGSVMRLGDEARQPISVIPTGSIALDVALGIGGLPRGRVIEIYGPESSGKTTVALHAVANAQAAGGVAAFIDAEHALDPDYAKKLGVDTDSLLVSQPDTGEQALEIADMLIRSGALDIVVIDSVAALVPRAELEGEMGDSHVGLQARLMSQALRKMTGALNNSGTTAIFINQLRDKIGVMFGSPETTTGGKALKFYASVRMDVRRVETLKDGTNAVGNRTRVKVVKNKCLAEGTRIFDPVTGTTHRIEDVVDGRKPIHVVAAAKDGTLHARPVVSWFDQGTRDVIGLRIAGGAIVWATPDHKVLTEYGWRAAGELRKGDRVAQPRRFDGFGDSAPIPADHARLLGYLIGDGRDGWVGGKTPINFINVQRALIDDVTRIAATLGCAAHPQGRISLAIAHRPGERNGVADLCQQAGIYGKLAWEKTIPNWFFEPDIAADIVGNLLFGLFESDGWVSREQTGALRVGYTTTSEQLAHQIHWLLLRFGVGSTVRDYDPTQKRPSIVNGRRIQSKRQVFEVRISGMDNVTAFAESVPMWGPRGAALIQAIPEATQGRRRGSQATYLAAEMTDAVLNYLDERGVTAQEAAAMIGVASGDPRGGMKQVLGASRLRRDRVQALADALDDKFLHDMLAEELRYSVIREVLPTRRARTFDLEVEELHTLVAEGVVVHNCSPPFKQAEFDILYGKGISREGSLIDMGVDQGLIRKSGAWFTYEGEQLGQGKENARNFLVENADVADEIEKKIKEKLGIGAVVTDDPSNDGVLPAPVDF
# YopH inh = YopH (Yersinia) phosphatase inhibition; inhibition, %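 (about 10 µM by stock and volumes)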; 140,000 compounds, 0.16% hits; AID 898; fluorescence Ex485/Em525;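 active means inhibition of 50% or more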;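 further: controls were vehicle for no effect and minimum signal wells for full effect; inactives centre near -20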
# Arbovirus anti = blocks arbovirus infection. inhibition, % at 10 µM. 200,000 compounds, 0.37% hits. arbovirus infection cell-based antiviral screen. AID 1251;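 active means inhibition from about 30%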;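 further: bluetongue infection of BSR cells; cell survival read as ATP light after 72 h; 0% = infected wells without compound and 100% = uninfected wells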
# Mtb growth = M. tuberculosis H37Rv growth inhibitors, H37Rv strain (AID 1626). M. tuberculosis H37Rv growth inhibition; higher % means a stronger effect. one-dose inhibition, % at 10 µM; IC50 in µM for titrated hits. 220,000 compounds, 0.95% hits;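 active means confirmed in a dose series; inconclusive means inhibition above 80% but not taken into the dose series; inactive means below 80% or under 30% at every dose of the series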;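 further: bacteria incubated seven days before Alamar blue readout; 0% = bacteria only wells and 100% = bacteria with antibiotic wells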
# * hit, by the source's call; ? = inconclusive; . = no result given; & = joins results of further samples. A portion of the library; rates above refer to the full screens.
# A first look:
SMILES,Mtb betalactam,RecA splice inh,YopH inh,Arbovirus anti,Mtb growth
Cc1ccc(S(=O)(=O)N2CCN(c3nc(C)c4c(c3C#N)CC(C)(C)OC4)CC2)cc1,.,.,-38,-3,8%
O=C(CCCN1C(=O)c2cccc3cccc(c23)C1=O)Nc1ccon1,-5,-0.5,.,-3,1%

# Main list, previewed entries included:
SMILES,Mtb betalactam,RecA splice inh,YopH inh,Arbovirus anti,Mtb growth
Cc1ccc(S(=O)(=O)N2CCN(c3nc(C)c4c(c3C#N)CC(C)(C)OC4)CC2)cc1,.,.,-38,-3,8%
O=C(CCCN1C(=O)c2cccc3cccc(c23)C1=O)Nc1ccon1,-5,-0.5,.,-3,1%
O=C1CCNc2ccc(-c3ccccc3)cc21,31,-47,-32,-6,>100µM*
COP(=O)(CN(Cc1ccccc1)C(=S)Nc1c(C)cccc1C)OC,-2,-4.1,.,-1,5%
COc1ccc(-c2cc(=O)[nH]c(=O)[nH]2)cc1,-3,5.4,-2,2,-4%
CCOC(=O)Cc1c(Cl)c2ccccc2[nH]c1=O,5,-0.3,.,5,10%
CC(OC(=O)C12CC3CC(CC(O)(C3)C1)C2)C(N)=O (centres undefined),-10,0.5,.,-2,-4%
O=c1[nH]cccc1-c1nc2ccccc2n1Cc1cccc(F)c1,-3,-0.7,.,.,.
COc1ccc([C@@H]2Sc3cc(OC)ccc3N(CCN(C(C)C)C(C)C)C(=O)[C@H]2OC(C)=O)cc1,10,.,-2,-16,-4%
CCCc1cc(C(=O)N2CCN(c3ccc(C(F)(F)F)cn3)CC2)sc1C,98,11,.,.,.
COC(=O)c1ccc(CN2CCN(Cc3ccccc3)C(CCO)C2)cc1 (centres undefined),-15,-1.4,.,-9,-4%
COC(=O)C1C(O)C(C)C(O)C(C)(O)/C=C\C=C(/C)C(=O)Nc2c(C)c(OC(C)=O)c3c(c2O)C(=O)C(C)=C2OCOC(=C23)/C(C)=C/C(C)(O)C(O)C(C)C1O (centres undefined),100,-18,.,.,0.32µM*
CCN(C1CCCCC1)S(=O)(=O)c1ccc(S(=O)(=O)NCCc2ccncc2)cc1,-2,4.6,-18,3,4%
CC(C)n1nnnc1SCC(=O)NCCc1ccccc1,-5,2.4,-17,-2,-8%
Cc1cccc(N(CC(=O)NC(C)(C)C)C(=O)CS(=O)CC(=O)Nc2ccc3c(c2)OCO3)c1 (centres undefined),-2,1.4,.,-7,-10%
O=S1(=O)CC(O)C(Nc2ccccc2)C1 (centres undefined),-1,-2.9,-14,0,-2%
CCOC(=O)c1ccc(N2C(=O)CC(NNC(=O)c3ccc(Br)s3)C2=O)cc1 (centres undefined),-2,.,.,.,-1%
O/N=C(/c1ccccc1)c1cc2cc(Br)cc(Br)c2o1,3,-1.7,.,.,.
CCc1ccc2oc(-c3cc(N)ccc3O)nc2c1,11,-6.5,-10,-27,-14%
CCS(=O)(=O)Nc1ccc(Cc2ccncc2)cc1,-2,-1.3,-10,-3,-2%

# Three structures from above, sorted by SMILES length, high to low:
SMILES,Mtb betalactam,RecA splice inh,YopH inh,Arbovirus anti,Mtb growth
O/N=C(/c1ccccc1)c1cc2cc(Br)cc(Br)c2o1,3,-1.7,.,.,.
COc1ccc(-c2cc(=O)[nH]c(=O)[nH]2)cc1,-3,5.4,-2,2,-4%
CCc1ccc2oc(-c3cc(N)ccc3O)nc2c1,11,-6.5,-10,-27,-14%

# Next records:
SMILES,Mtb betalactam,RecA splice inh,YopH inh,Arbovirus anti,Mtb growth
COc1ccc(NC(=O)Nc2nnc(-c3ccccc3SCc3ccccc3)s2)cc1,-10,-0.4,-13,-12,11%
COc1ccc(CC(=O)Nc2ccc3c(c2)C(=O)N(CCC(=O)O)C3=O)cc1,-5,0.7,.,.,.
COc1ccc(CCN2CC(C(=O)O)CC2=O)cc1OC (centres undefined),-13,1.2,-19,8,5%
CCn1c(CNC(=O)c2ccccc2F)cc2cc(C)ccc21,0,-0.5,.,.,.
O=C(NCCCN1CCCCCC1)C1CCCN(S(=O)(=O)c2cccc3nsnc23)C1 (centres undefined),2,-2.8,.,3,3%
COc1cccc(-c2nc(NCc3cccnc3)c3ccccc3n2)c1O,3,1.9,.,.,.
COCCOC(=O)C1=C(C)NC(=O)NC1c1ccco1 (centres undefined),2,2.4,.,.,-11%
CCOC(=O)c1cc[nH]c1C,1,0.4,.,1,10%
N#CCC(=O)NNC(=S)NC(=O)C(c1ccccc1)c1ccccc1,-1,14,.,6,-7%
CCCS(=O)(=O)NCCc1csc(-c2ccc(OC)c(OC)c2)n1,-10,1.4,.,.,3%
Cc1cc(C)cc(NC(=O)NC2CCN(CC(=O)Nc3cccc(Cl)c3C)CC2)c1,-4,0.6,.,.,8%
CCN1CCN(Cc2c(O)ccc3c2O/C(=C\C=C\c2ccccc2)C3=O)CC1,37,-12,-2,26,9%
Cc1ccccc1C(=O)NCC(=O)c1ccccc1,1,2.2,.,.,.
COC(=O)c1cc(NS(=O)(=O)c2ccc(C(C)C)cc2)ccc1N1CCOCC1,-5,1.3,.,.,4%
Cc1c(C(=O)NNC(=S)Nc2ccc(S(N)(=O)=O)cc2)oc2ccccc12,0,-3.2,.,.,.
Nc1ccc(C(=O)N2CCN(S(=O)(=O)/C=C/c3ccccc3)CC2)cc1[N+](=O)[O-],-1,2.6,.,.,.
CC1CCCC(C)N1/N=C/c1ccc(C(=O)O)cc1 (centres undefined),-5,0.6,.,.,-6%
O=C(COC(=O)c1ccc(NS(=O)(=O)c2ccc3c(c2)OCCO3)cc1)NCC1CCCO1 (centres undefined),1,0.7,-112,9,10%
CCn1nnnc1-c1ccc(OC)c(S(=O)(=O)Nc2ccc(C(=O)OC)cc2)c1,-3,-2.2,-7,3,-1%
O=C(NNC(=O)c1ccc(Cl)s1)c1csc(N2CCOCC2)n1,28,4.2,.,.,.

# Gathered by group, those above with bromine (2)
SMILES,Mtb betalactam,RecA splice inh,YopH inh,Arbovirus anti,Mtb growth
CCOC(=O)c1ccc(N2C(=O)CC(NNC(=O)c3ccc(Br)s3)C2=O)cc1 (centres undefined),-2,.,.,.,-1%
O/N=C(/c1ccccc1)c1cc2cc(Br)cc(Br)c2o1,3,-1.7,.,.,.

# New compounds follow:
SMILES,Mtb betalactam,RecA splice inh,YopH inh,Arbovirus anti,Mtb growth
O=C(COc1ccccc1/C=C\c1[nH]c(=O)[nH]c(=O)c1[N+](=O)[O-])Nc1ccccc1,9,.,.,-8,-1%
Cc1[nH]c(=O)[nH]c(=O)c1/C=N/NC(=O)CCNC(=O)OC(C)(C)C,-15,-5.9,.,.,-4%
Cc1nnc2c(NCC(C)c3ccccc3)nc3ccccc3n12 (centres undefined),-1,-1.4,.,.,.
CCOc1ccc(NS(=O)(=O)c2ccc(C(=O)NCC(c3ccc(OC)cc3)N3CCCC3)cc2)cc1 (centres undefined),12,0.6,.,.,.
COc1ccc(CNC(=O)CCN2C(=O)c3ccccc3S2(=O)=O)cc1,-7,0.4,.,.,.
CC(C)c1ccccc1NC(=O)COC(=O)C1(C)CC1(Cl)Cl (centres undefined),-5,-5.4,.,2,-1%
O=C(COc1ccccc1)Nc1ccccc1Cl,50,1.5,.,-1,9%
S=c1[nH]nc(-c2ccco2)n1/N=C/C=C/c1ccccc1,0,-5.0,-21,7,.
CCOc1ccc(-n2c(C)c(C(C)=O)c3cc(OC(C)=O)ccc32)cc1,2,0.7,.,.,.
COc1ccc(NC(=O)c2sc(SC)nc2N)cc1,-1,.,6,0,-2%
O=C1C(Cl)=C(N2CCCCCC2)C(=O)N1c1ccc(Cl)cc1,51,16,.,.,.
O=C(COC(=O)C1CC2C=CC1C2)NCc1ccc(F)cc1 (centres undefined),0,0.6,-27,4,4%
COCCNC(=O)CSc1ccccc1C(=O)NC1CCSc2ccccc21 (centres undefined),0,-0.9,.,.,.
O=[N+]([O-])c1ccc(-c2ccc(S(=O)(=O)NCCN3CCCC3)cc2)cc1,1,2.3,.,-18,2%
Cc1nnc(NC(=O)CSc2nccn2Cc2ccccc2)s1,-14,-1.2,.,.,.
COc1ccc(C(=O)NC(C)Cn2nc(C)cc2C)cc1OC1CCN(C(C)=O)CC1 (centres undefined),-2,-0.8,.,.,.
COc1ccc(Cl)cc1NS(=O)(=O)c1ccc(OC)c(OC)c1,-5,0.7,-6,-6,-3%
O=C1CC(NN2CCCCC2)C(=O)N1c1ccccc1 (centres undefined),-6,-1.1,.,-5,-9%
O=C(CCN1C(=O)c2ccccc2C1=O)Nc1ccc(-c2nc3ccccc3o2)cc1,3,-5.1,1,-9,.
CC(C)C(=O)Nc1cccc(NC(=O)c2cccnc2)c1,-3,-2.5,-20,-1,-10%
Cc1ccc(S(=O)(=O)N2CCN(S(=O)(=O)N3CCC(C)CC3)CC2)cc1C,1,-0.4,.,.,.
Cc1ccc(CNC(=O)CCc2nnc3ccc(NCCCN4CCCC4=O)nn23)cc1,?,0.6,.,.,.
Cc1csc2ncc(C(=O)Nc3ccccc3F)c(=O)n12,-6,2.0,.,.,5%
CC(=O)Nc1cccc(-n2nnc(SCC(=O)c3ccccc3)n2)c1,-4,-2.4,.,.,-8%
O=C(NCCCOc1cccc(CN2CCCCC2)c1)c1ccc(Cl)c(Cl)c1,1,-0.3,-10,-31,11%
N#Cc1c2c(c(NCCOCCO)n3c1nc1ccccc13)CCCC2,-4,-57,.,6,-12%
CS(=O)(=O)NCc1nnc(SCc2ccccc2C(F)(F)F)o1,7,.,5,1,-1%
O=[N+]([O-])c1cc(C(F)(F)F)ccc1NCCCCNS(=O)(=O)c1ccc(Cl)cc1,4,-1.8,-24,1,3%
O=C(NCc1cccs1)c1cc2c(s1)CCCC2,1,-1.7,10,-4,-5%
CCc1ccc(S(=O)(=O)Nc2ccc(Cl)cn2)cc1,-8,1.1,.,.,.
CCCCCC(C)NC(=S)NC(=O)c1cc(S(=O)(=O)N2CCOCC2)ccc1C (centres undefined),0,3.8,-44,-13,13%
Cc1ncc(CO)c(/C=N/NC(=O)c2cccc(S(=O)(=O)N3CCCC3)c2)c1O,-2,-8.1,.,.,.
CCOC(=O)C1CCCN(C(=O)c2cc3nc(-c4cccc(OC)c4)cc(C(F)(F)F)n3n2)C1 (centres undefined),75,-20,-20,-4,14%
CC1CCN(C2=C(NS(=O)(=O)c3ccc(Br)cc3)C(=O)c3ccccc3C2=O)CC1,2,8.6,.,.,.
COc1ccc(CCNC(=O)c2ccc3nc[nH]c3c2)cc1,3,1.0,.,.,.
COc1cccc(C(=O)Nc2ccccc2C(=O)NC2CC2)c1,-1,2.6,.,.,.
CCC(=O)NNc1nc2c(C)cc(C)cc2s1,4,-4.1,.,-2,71%
Cc1ccc(C(C#N)N2CCOCC2)cc1 (centres undefined),.,-0.8,8,2,-6%
COc1ccc(C(=O)N2CCCC(c3nc(-c4cc(OC)c(OC)c(OC)c4)no3)C2)cc1 (centres undefined),-2,2.5,-28,-6,-4%
COc1ccc(CN2CC(C(=O)N3CC(C)CC(C)C3)CC2=O)cc1 (centres undefined),0,-1.1,.,.,.
CCOC(=O)c1ccc(NC(=O)NC2CC3CCC(C2)N3C(=S)NC)cc1 (centres undefined),-10,3.3,.,-8,-10%
C#Cc1cccc(NC(=O)Cc2cccs2)c1,-3,0.1,.,.,.
O=C(COc1ccc(F)cc1)N1c2ccccc2CCc2ccccc21,0,12,-15,7,6%
O=C(O)CCSc1ccc2ccccc2n1,4&-3,1.2&0.3,-15&-32,13&13,6%&1%
COc1cc(C(F)(F)F)nc2ccc(C#CCOC(=O)Nc3ccccc3)cc12,76,-1.6,.,.,10%
Cc1ccc(NS(=O)(=O)c2c(C)[nH]c(C)c2C(=O)N2CCCCC2)cc1Cl,1,-1.8,.,.,.
Cc1cn(C(=O)c2ccccc2)c(=S)n1-c1ccc(Br)cc1,42,5.8,-11,-4,-2%
COc1ccc(CNC(=S)N/N=C/c2ccc(OC)c(OC)c2)cc1,-4,-0.4,-29,5,.
Cn1c(-c2ccccc2)cnc1SCC(N)=O,-4,-1.0,-1,2,-10%
CNCc1c(C)nn(-c2ccccc2)c1C,-8,4.4,.,16,9%
COc1ccc(N2CCN(C(=O)c3ccccc3NC(=O)C3=C(C)OCCS3)CC2)cc1,8,-4.5,.,.,.
COc1cc(OC)cc(-n2nnnc2SCC(=O)NCc2ccc3c(c2)OCO3)c1,1,1.5,-23,-11,9%
COc1ccc(Nc2nc(-c3ccccc3)nc3ccccc23)cc1,64,0.2,.,.,.
COc1ccc2[nH]c(C)c(C(=O)CN(C)C)c2c1,-6,-0.2,-55,1,-5%
Cc1ccc(NC(=O)CC(=O)c2ccccc2)cc1C,62,1.8,.,.,.
CCN1C(=O)/C(=C/c2cnn(CC)c2C)SC1=S,-5,-0.6,-19,-1,-3%
C=CCSc1nnc(CNC(=O)c2ccccc2C)n1C(C)C,-1,0.0,.,6,6%
O=C(Nc1ccccc1)c1cc2ccccc2c(=O)s1,-3,8.2,-25,8,22%
CCOC(=O)c1ccc2c(c1)nc(C)n2CC,6,.,-20,1,-7%
Nc1nc(Cn2nnc(-c3ccccc3F)n2)nc(N2CCOCC2)n1,-2,0.4,-28,1,-4%
